Source: PubChem BioAssay (National Center for Advancing Translational Sciences (NCATS))
VACV Venus inh: inhibitors of vaccinia virus (Venus reporter). hit rate 0.46% among 330,000. AID 720580. Vaccinia virus Venus reporter expression, fluorescence. Potency, µM (doses to about 36.5 µM), for the others: top-dose activity change, negative = inhibition, usual class: inhibitors; active means well fitted inhibition curve with a large enough effect; inconclusive means small, poorly fitted or top-dose-only effect; inactive means no such curve, though single readings can be large or run the other way; tested in A549 cells; further: nearly all actives have a fitted effect of over 30% in size; inactives centre near -10
Vaccinia mCherry: inhibitors of vaccinia virus infection (mCherry reporter signal). Vaccinia virus mCherry reporter infection, fluorescence; about a quarter of the inactives have no number. Potency, µM (highest dose often 36.5 µM), without a hit: at the top dose activity change, negative = inhibition, actives largely listed as inhibitors. hit rate 0.63% among 310,000. AID 720579; active = well fitted inhibition curve with a large enough effect; inconclusive = small, poorly fitted or top-dose-only effect; inactive = no such curve, though single readings can be large or run the other way; tested in A549 cells; further: nearly all actives have a fitted effect of over 35% in size; inactives centre near -10
* = called active by the depositor; i = inactive; ? = inconclusive; nt = not tested or not shown; & = joins results of further samples; [ ] = remark or other dose. On the % scale 0 is the no-effect control and ±100 the full control effect; potency means the concentration at half of the fitted maximal effect.

entry	Molecule	VACV Venus inh	Vaccinia mCherry
1	COc1ccc(-c2noc(-c3ccc(NCc4ccco4)c([N+](=O)[O-])c3)n2)cc1OC	-9.6%	-5.9%
2	CC(=O)c1cc2c(cc1NC(=O)c1cccc(S(=O)(=O)N3CCN(C)CC3)c1)OCO2	10.8%	-13.7%
3	CC1CCN(C(=O)c2ccc3c(Cl)c4c(nc3c2)CCCC4)CC1	-9.4%	i
4	CCCCN1/C(=C/c2ccc3ccccc3[n+]2CC)Sc2ccccc21	421.7%[activator]	-5.4%
5	Cc1ccccc1NC(=O)Cn1c(=O)n(CCCCC(=O)NCc2ccccc2Cl)c(=O)c2ccccc21	?	?
6	Cc1cccc(-c2noc(CNS(=O)(=O)c3ccccc3)n2)c1	-5.1%	i
7	CCC(Oc1ccccc1)C(=O)Nc1cc(Cl)ccc1-n1cncn1 (centres undefined)	-19.5%	-3.7%
8	CC(=O)N1N=C(c2ccncc2)OC12CCCC2	1.5%	nt
9	CCCCn1c(N)c(N(CCOC)C(=O)c2ccc(-c3cccc(C(F)(F)F)c3)o2)c(=O)[nH]c1=O	-6.8%	-21.6%
10	CCCCOC1(c2ccccc2)OC(=O)c2ccccc21 (centres undefined)	-7.7%	-8.7%
11	CCn1c(/C=C/c2cccc([N+](=O)[O-])c2)nc2ccccc2c1=O	-8.3%	-6.2%
12	CN1CCN(c2ccc(S(=O)(=O)N3CCCCC3)cc2NC(=O)Cc2c(F)cccc2Cl)CC1	-19.1%	-7.1%
13	CC(C)CCC[C@](C)(O)c1ccc(C(=O)O)cc1O	3.0%	3.4%
14	CCc1nc2ccc(C(=O)Nc3cccc(OCC(=O)N(C)C)c3)cn2c1N(C)Cc1cc2ccccc2s1	-8.8%	12.1%
15	COC(=O)Cn1c(=O)c2c(nc3n2CCCN3CCc2ccccc2)n(C)c1=O	-7.1%	-9.8%
16	O=C(Cc1ccc(-c2ccccc2)cc1)NCCS(=O)(=O)N1CCN(c2ccc(F)cc2)CC1	-17.0%	-14.6%
17	C=CCn1c(SCC(=O)OCc2ccccc2)nc2c1c(=O)n(C)c(=O)n2C	-5.2%	-12.6%
18	CCNC(=O)C1(C)CCCN(C(=O)c2ccc(F)c(C)c2)C1 (centres undefined)	-2.4%	28.7%
19	c1cc2c3c(cccc3c1)C(N1CCCCCC1)=N2	-10.2%	-15.7%
20	O=C(Nc1ccccc1)Nc1ncc([N+](=O)[O-])s1	?	10µM*
21	C/C(=C1/SC(=S)N(CCC(=O)O)C1=O)c1ccc(O)cc1	2.1%	nt
22	CCN(CC)c1ccc(C(=O)NCc2ccc3c(c2)CCN3C(=O)c2ccc(F)cc2)cc1	-17.7%	?
23	CCOc1ccc(S(=O)(=O)N(C)c2ccc(OCC(=O)Nc3nccs3)cc2)cc1	-15.1%	-6.9%
24	O=C(c1ccc(Cl)cc1)N1CCC(O)(CSc2ccccc2)CC1	-18.2%	nt
25	O=C(C(Cc1ccccc1)NS(=O)(=O)c1ccc(F)cc1)N1CCC2(CC1)OCCO2 (centres undefined)	-13.0%	nt
26	COc1ccc(C(=O)C2CCCN(C(=O)c3ccccc3C(C)=O)C2)cc1F (centres undefined)	-3.5%	i
27	O=c1[nH]c2ccc(NCc3ccc(-c4ccc(F)cc4)o3)cc2[nH]1	-15.3%	i
28	Clc1ccc(CSc2nc(NCCc3ccccc3)c3ccccc3n2)cc1	-29.8%	-19.8%
29	CN(C)c1ccc(NC(=O)Nc2csc3ccccc23)cc1	-5.5%	-20.1%
30	Cc1nn(C(=O)c2ccccc2F)c(C)c1S(=O)(=O)N1CCOCC1	-5.7%	4.8%

More structures.
entry	Molecule	VACV Venus inh	Vaccinia mCherry
31	CCc1ccc(CNC(=O)C2CCCN(S(=O)(=O)N(CC)c3ccccc3)C2)cc1 (centres undefined)	-12.9%	-21.1%
32	CCOC(=O)CSc1nc2sc3c(c2c(=O)n1CC)CC(C)(C)OC3	-1.3%	i
33	COC(=O)CCCC1=CC2=C(c3ccccc3)C(=O)C(C)(OC(=O)C3CCCC3)C(=O)C2=CN1C1CCCC1 (centres undefined)	-4.8%	-20.5%
34	CC(=O)c1c(C)nc(-c2ccc(Cl)cc2Cl)n1O	?	nt
35	COc1ccc(S(=O)(=O)NCCc2csc(-c3ccc(F)cc3)n2)cc1	-21.0%	-13.3%
36	COc1ccc(COC(=O)C2=C(C)NC(=O)NC2c2ccc(O)c(OC)c2)cc1 (centres undefined)	-16.8%	i
37	CCCN1CCC(=O)N([C@H](CO)c2ccccc2)CC1	-16.6%&-6.9%	-2.7%&-11.9%
38	O=C(CCN1C(=O)/C(=C\c2ccc(F)cc2)SC1=S)Nc1ccc(O)cc1	12.0%	0.5%
39	Cc1cc(C)cc(Oc2ccc(NC(=O)C3CC=CCC3C(=O)O)cc2)c1 (centres undefined)	-11.3%	-18.3%
40	CC[C@@H](C)CCCCC(=O)N[C@@H](CCNCS(=O)(=O)O)C(=O)N[C@H](C(=O)N[C@@H](CCNCS(=O)(=O)O)C(=O)N[C@H]1CCNC(=O)[C@H]([C@@H](C)O)NC(=O)[C@H](CCNCS(=O)(=O)O)NC(=O)[C@H](CCNCS(=O)(=O)O)NC(=O)[C@H](CC(C)C)NC(=O)[C@@H](CC(C)C)NC(=O)[C@H](CCNCS(=O)(=O)O)NC1=O)[C@@H](C)O	-10.4%	-15.5%
41	COc1ccc(C(O)c2nc3ccccc3n2C)cc1OC (centres undefined)	-26.1%	?
42	Cc1cc(C)nc(NC(=O)c2cc3ccccc3o2)n1	-5.7%	i
43	O=C(COc1ccc2ccccc2c1)N/N=C/c1ccccn1	-7.2%	-12.7%
44	COc1cc(NC(=O)CSc2nc3[nH]ncc3c(=O)n2-c2ccccc2C)cc(OC)c1OC	-16.5%	-6.0%
45	Cc1cc(C)c(Cn2cnc3nc4c(cc3c2=O)CCCC4)c(C)c1	-17.8%	-18.2%
46	CCn1c(=N)n(CC(=O)C23CC4CC(CC(C4)C2)C3)c2ccccc21	-10.6%	nt
47	Cc1cc(C)c(C)c(S(=O)(=O)NCCCN2CCCC2=O)c1C	-9.1%	-5.8%
48	Cc1ccc([N+](=O)[O-])cc1N/C=C1\CCCCC1=O	0.9%	-3.2%
49	Nc1ccc(C(CC(=O)O)n2cccc2)cc1 (centres undefined)	-10.0%	-6.5%
50	COc1cccc(NC(=O)Cn2nnc(C(=O)NCc3cccs3)c2N)c1	-8.8%[7.34 µM]	-16.2%[7.34 µM]
51	Clc1ccc(Nc2nc(-c3ccncc3)cs2)cc1	-20.4%	?
52	COc1ccc(CC(=O)N(Cc2ccccc2)c2cccc(C)c2)cc1OC	-15.9%	-2.6%
53	COc1ccccc1C(=O)NC(=O)COC(=O)C1CC2CCCC(C1)C2=O (centres undefined)	-17.4%	i
54	CCCSc1nc2c(cnn2-c2ccc(Cl)cc2)c(=O)[nH]1	-3.3%	-11.0%
55	O=C(Cn1c(=O)oc2cc(S(=O)(=O)N3CCCCC3)ccc21)Nc1cccc(Cl)c1	6.6%	-6.8%
56	CCOC(=O)C(C)NC(=O)c1c2c(nc3ccccc13)C(=O)N(C1CCCCC1)C2 (centres undefined)	-9.3%	-12.1%
57	CN(Cc1ccc(F)cc1)S(=O)(=O)c1nnc(NC(=O)c2ccccc2Cl)s1	-9.8%	-12.3%
58	CCC(=O)N(Cc1cc(=O)[nH]c2ccccc12)c1cccc(C)c1	-28.7%	nt
59	COc1ccc(NC(=O)c2oc3ccc(S(=O)(=O)N4CCCCC4)cc3c2C)cc1	-19.4%	-18.9%
60	N#CC1=C(N)Oc2n[nH]c(-c3ccccc3)c2C1c1ccsc1 (centres undefined)	-23.7%	nt

Further records:
entry	Molecule	VACV Venus inh	Vaccinia mCherry
61	COCCn1c(SCC(=O)Nc2ccc3c(c2)OCCO3)nc2ccccc2c1=O	-20.5%	-25.7%
62	O=C1CCc2cc(NS(=O)(=O)c3ccccc3)cc3c2N1CC3	0.8%	-5.8%
63	COc1cccc2cc(-c3nc4ccccc4[nH]3)c(=O)oc12	-17.9%	-8.9%
64	COc1ccc(NC(C)=O)cc1NC(C)C(=O)Nc1ccc(F)c(F)c1F (centres undefined)	-9.1%	i
65	CCCc1cc(Nc2ccccc2C)n2ncnc2n1	6.2%	-2.4%
66	Cc1ccc(C(=O)N/C(=C\c2ccc(-c3ccccc3[N+](=O)[O-])o2)C(=O)NCCN(C)C)cc1	-23.0%	-14.8%
67	c1coc(CNCC2OCCc3ccccc32)c1 (centres undefined)	-1.3%	i
68	CC(C)c1nc(SCC(=O)N2CCN(c3ccccc3)CC2)c2c(=O)n(C)c(=O)n(C)c2n1	-12.0%	i
69	CC(C)C(C(=O)NCC1CCCO1)N(C(=O)CNS(=O)(=O)c1ccccc1)c1ccc(F)cc1 (centres undefined)	-5.0%	i
70	Cc1nc2nc(Cc3ccccc3)[nH]n2c(=O)c1Cl	9.8%	nt
71	Nc1ncnc2c1ncn2C1OC(C(=O)NC2CC2)C(O)C1O (centres undefined)	-10.3%	i
72	CCOc1ccc(NC(=O)c2ccc(NC(=O)COC(=O)Cc3ccccc3)cc2)cc1	-11.9%	?
73	CC1CCC2(CC1)NC(=O)N(CC(=O)Nc1ccc3[nH]c(=O)[nH]c3c1)C2=O (centres undefined)	-0.5%	-17.0%
74	Cc1ccc2c(CNC3CCC(C)CC3)c(C(=O)O)n(Cc3cccc(F)c3)c2c1 (centres undefined)	?	-23.4%
75	Cc1ccc2oc(=O)c3cnn(CC(=O)N(CCC(C)C)Cc4ccco4)c3c2c1	-9.5%	i
76	CC(=O)Nc1c(N)c2ccccc2oc1=O	-8.5%	4.1%
77	COCCNC(=O)c1c(N)n(CCC(C)C)c2nc3ccccc3nc12	?	?
78	CCc1nc2c(OCC(N)=O)cccn2c1N(C)C(=O)c1ccc(OC)cc1	-10.2%	25.5%
79	CCn1cc(C(=O)OCC(=O)c2cc(C)n(-c3cccc(C(F)(F)F)c3)c2C)c(=O)c2ccc(C)nc21	-27.0%	-16.3%
80	CCOC(=O)C1CCCN(C(=O)c2ccc(OC)c([N+](=O)[O-])c2)C1 (centres undefined)	-16.5%	i
81	C/C(=N\Nc1ccc([N+](=O)[O-])cc1)c1ccc(N2CCOCC2)cc1	7.1%	?
82	Fc1ccccc1-c1nnc2ccc3ccccc3n12	-15.9%	i
83	CC(=O)c1sc(Nc2ccc3c(c2)OCO3)nc1C	-4.2%	6.1%
84	CCOC(=O)C1CCN(C2=C(NS(=O)(=O)c3ccc(Cl)cc3)C(=O)c3ccccc3C2=O)CC1	-17.3%	-13.7%
85	C#CCNC(=O)C1=C[C@@H](c2coc3ccccc3c2=O)C[C@@H](OCCCCO)O1	-5.7%	-13.8%
86	Cc1nc(Cl)c(Cl)n1CCOc1ccccc1	3.7%	10.6%
87	Nc1ccc(C=Cc2ccc(N)cc2)cc1	-14.3%	?
88	COC(=O)c1[nH]c2cccc(OC)c2c1NC(=O)CN1CCN(c2cccc(OC)c2)C(C)C1 (centres undefined)	-27.6%	nt
89	O=C(Cn1cc(C(F)(F)F)ccc1=O)N/N=C/c1ccccc1O	-24.9%	15.8µM*
90	Clc1ncc(CN2CCN(Cc3ccccc3)CC2)s1	-11.3%	nt

Other results.
entry	Molecule	VACV Venus inh	Vaccinia mCherry
91	CN(c1ccc(OCC(=O)OCC(=O)Nc2ccc(Br)cc2)cc1)S(=O)(=O)c1cccs1	-7.9%	i
92	CN(C(=O)CSc1nnc(-c2ccco2)n1C)C1CCCCC1	-18.2%	i
93	CC1CCCN(c2ncnc3c2nc2n3CCCCC2)C1 (centres undefined)	2.7%	3.4%
94	CCCNC(=O)Cc1cc(=O)[nH]c(=O)[nH]1	-2.3%	i
95	CN1C(=O)N(CC(=O)N2CCN(S(=O)(=O)c3ccc(Cl)s3)CC2)C(=O)C12CCCCC2	?	-6.8%
96	O=C(CSc1ccc(-c2cccc([N+](=O)[O-])c2)nn1)N1CCCC1	-10.4%	-13.0%
97	COc1cc2c(cc1N)-c1ccc(N)cc1C2	-10.7%	i
98	CC(=O)c1ccc(NC(=O)COC(=O)/C=C/c2cccs2)cc1	-9.0%	-0.5%
99	CC(C(=O)NCC1CCCCC1)N1CCN(S(=O)(=O)/C=C/c2ccccc2)CC1 (centres undefined)	-19.6%	-17.6%
100	CCOC(=O)N1CCC(NC(=O)CCc2c(C)nc3c(c(C)nn3-c3ccccc3)c2C)CC1	-9.7%	-0.7%
101	CC1(C)Cc2ccccc2C(CSc2ccccc2C(=O)O)=N1	-13.7%	-12.1%
102	CSCC[C@H](Nc1ncnc2sc(C)c(C)c12)C(=O)O	-15.1%	nt
103	COc1ccc2sc(N(CCCN(C)C)C(=O)c3ccc(S(=O)(=O)N(C)C4CCCCC4)cc3)nc2c1	?	-23.9%
104	Cc1cc(=O)oc2cc(OCC(=O)N3C[C@H]4C[C@@H](C3)c3cccc(=O)n3C4)c(Cl)cc12	11.6%	9.3%
105	CCc1nc2ccc(C(=O)Nc3cc(-c4ccccc4)ccc3OC)cn2c1N(C)Cc1ccc(OC)cc1	-11.2%	?
106	CCOC(=O)c1cnn(-c2ncnc3sc(CC)cc23)c1N	-14.2%	nt
107	O=C(NCCc1ccccc1)c1ccc(CS(=O)(=O)c2ccc(Br)cc2)o1	11.3%	-2.6%

Another view of 3 compounds above:
The line under a structure holds: VACV Venus inh	Vaccinia mCherry
#91 CN(c1ccc(OCC(=O)OCC(=O)Nc2ccc(Br)cc2)cc1)S(=O)(=O)c1cccs1
  -7.9%	i
#92 CN(C(=O)CSc1nnc(-c2ccco2)n1C)C1CCCCC1
  -18.2%	i
#93 CC1CCCN(c2ncnc3c2nc2n3CCCCC2)C1 (centres undefined)
  2.7%	3.4%
